# BJeLR viability: MLPCN primary cell-based screen for lethality selective to Ras in HRASV12 cells | inhibition, % (no concentration beside the values) | BJeLR (HRASV12) viability, CellTiter-Glo ATP luminescence, 48 h; reference of the scale not given here | hit rate 0.17% among 300,000;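 active = replicate mean above 50%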;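 note: 50 nL library stock added to about 25 µL; numbers are from one replicate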
# Mtb hypoxia inh: PubChem AID 1159583 | M. tuberculosis hypoxia-regulated fluorescent reporter, fluorescence | fluorescence inhibition, % (concentration not given with the values) | hit rate 0.1% among 300,000;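 active = 35 to 45% if threefold the growth effect, above 45% if 1.5-fold the growth effect; inactive = the rest, general growth blockers included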;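 note: wells of about 50 µL received 100 nL stock; 0% = vehicle wells and 100% = reference inhibitor wells; whole bacteria with a GFP reporter of the hypoxia response; strong numbers were not always called active; many hits fall short of the cut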
# Bead autofluor: compound fluorescence in toxin protease inhibitor counterscreen; compound autofluorescence counterscreen, microsphere flow cytometry; hits give high values; hit rate 3.1% among 360,000; fluorescence intensity (no concentration beside the values);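 active = at least 3 SD above the mean of all compounds, about 16000 in these data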;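 note: 100 nL of 1 mM stock went into each well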
# RN4220 kill: growth inhibition of S. aureus RN4220, primary screen, OD600. 16 h. inhibition, % (concentration not given with the values). hit rate 0.33% among 330,000;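 active = z-score of -3 or lower and OD600 up to 0.18 on both plates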;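 note: plate controls were untreated cells for no effect and reference antibiotic for full effect; stock transfer was 100 nL into about 80 µL; one replicate is shown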
# PrP UTR inh: inhibition of PrP 5' UTR reporter expression | cell-based PrP 5' UTR mRNA reporter, plate reader | inhibition, % (no concentration beside the values) | hit rate 0.35% among 340,000;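 active = every replicate at 50% or more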;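 note: 0 = median of the neutral control wells; tested in H4 reporter cells; numbers are from one replicate; inactives centre near -14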
# Sa ugtP lethal: growth inhibition of ugtP-null S. aureus, primary screen, RN4220 ugtP deletion, OD600; growth inhibition, % (no concentration beside the values); hit rate 0.54% among 330,000; AID 1259309, 2017; 16 h; some inactives read as strong as hits;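 active = z-score under -3 and OD600 up to 0.15 on both plates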;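 note: plate controls were untreated wells for no effect and antibiotic for full effect; wells of about 80 µL received 100 nL stock; the first replicate is given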
# Mtb hypoxia inh growth: also measured in Mtb hypoxia inh; calls as there; growth inhibition, %; measured here: M. tuberculosis growth (absorbance);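 0% = vehicle and 100% = reference antibiotic; read after six days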
# An asterisk follows results filed as active; x = no result given; & = joins results of further samples.
# The line under a structure holds: BJeLR viability	Mtb hypoxia inh	Mtb hypoxia inh growth	Bead autofluor	RN4220 kill	PrP UTR inh	Sa ugtP lethal
CCc1ccc(N2CC(C(=O)Nc3nnc(CC)s3)CC2=O)cc1 (centres undefined)
    -12	13	13	3374	-0.9	-15	7
CCN1C(=O)/C(=C2\C=Cc3cc(C)ccc3N2CC)OC1=S
    3	x	x	3425	x	-15	x
O=[N+]([O-])c1ccccc1OCC(O)CN1CCN(CC(O)COc2ccccc2[N+](=O)[O-])CC1 (centres undefined)
    0	5	-3	3694	2.2	-10	3
O=C1C2C(c3ccc(F)cc3)N3C(=O)N(c4ccc(C(F)(F)F)cc4)C(=O)[C@@]3(Cc3ccccc3)C2C(=O)N1C1CCCCC1 (some centres undefined)
    x	-9	1	x	0.2	x	-29
COc1ccc(-c2nc(N)ncc2-c2csc(C)n2)c(O)c1
    9	-6	-6	7157	-1.0	-45	-4
COc1cccc(C=NNC(=S)Nc2cccc(C(=O)O)c2)c1
    x	-5	11	x	2.7	x	-4
COc1ccccc1CN(C)C(=O)c1cccc(S(=O)(=O)N2CCc3ccccc3C2)c1
    x	-5	3	3399	6.5	-8	4
CC(=NNc1ccnc2cc(Cl)ccc12)c1ccc(N)cc1
    x	5	4	x	2.2	x	1
N#CCCn1cc(C=NO)c(-c2ccc(Cl)cc2)n1
    x	7	1	x	2.0	x	11
O=S1(=O)CC(O)C(NCc2ccco2)C1 (centres undefined)
    6	8	10	x	5.3	-17	7
COc1cc(C(=O)NNC2=NC(C)(C)Cc3cc(C)c(C)cc32)cc(OC)c1OC
    10	5	-1	2485	0.3	-12	4
O=C1c2ccccc2C(Nc2ccc(S(=O)(=O)N3CCCCCC3)cc2)N1c1ccccn1 (centres undefined)
    2	6	1	6222	-16	-9	-11
CN(/N=C/c1ccc2c(c1)OCO2)c1ccccc1
    -2	x	x	2272	x	-58	x
CCOC(=O)C1CCCCN1C(=O)CCn1nnnc1CN1CCOCC1 (centres undefined)
    5	6	1	6130	2.5	-9	2
O=C(NCCSCc1ccccc1)c1ccc(F)cc1
    0	-9	-2	2083	3.1	-18	10
Cn1c(O)c(N=NC(=O)CNC(=O)c2ccco2)c2ccccc21
    -7	-10	0	2667	2.2	-7	2
COc1ccc(CN(C(=O)c2oc3cc(C)ccc3c2C)C2CCS(=O)(=O)C2)cc1OC (centres undefined)
    5	0	3	5867	1.2	-19	3
Brc1cccc(C2CC(c3ccccc3)n3nnnc3N2)c1 (centres undefined)
    -11	0	3	3744	-3.9	-25	-13
CCN(c1ccccc1)S(=O)(=O)c1cc(C(=O)NCc2ccco2)ccc1C
    x	-4	7	3772	-0.1	5	-7
Cc1ccccc1NC(=O)CSc1ccc(-c2ccccn2)nn1
    0	39*	17*	5301	1.7	-4	12
Cc1cc(OCCCC(=O)NNC(=O)c2ccncc2)ccc1Cl
    -8	x	x	5731	4.3	-14	-4
Nc1nc(Nc2ccccc2F)nc(NCc2ccccc2)c1[N+](=O)[O-]
    -2	2	2	x	-11	-21	-6
CC(CNS(=O)(=O)c1ccccc1)Sc1nncn1C (centres undefined)
    -9	-3	-1	4282	7.7	-4	3
Cc1cc(C)nc(SCc2ccc(C(=O)NN=C3CCCC(=O)C3)cc2)n1
    x	5	6	x	1.0	x	0
O=[N+]([O-])c1ccc(-c2ccc(C=Nc3c(-c4ccco4)nc4ccccn34)o2)cc1
    x	7	10	x	13	x	-9
CCOc1ccccc1NC(=O)c1ccc2c(c1)C(=O)N(CC(C)C)C2=O
    2	-4	6	4206	-5.5	-19	3
CCOC(=O)N1CCN(C2=C(NS(=O)(=O)c3ccc(C)cc3)C(=O)c3ccccc3C2=O)CC1
    2	-10	4	5134	1.7	-21	-17
O=C(CSCc1ccc(Cl)cc1)Nc1ccc(Br)cc1C(=O)O
    -9	16	7	3798	9.8	-17	6
COc1ccc(N2C(=O)CSC2=NC(=S)Nc2ccccc2)cc1
    x	-9	-4	x	-3.0	x	19
C=CCNC(=S)NN=Cc1ccc(OCc2ccccc2Cl)cc1
    x	0	-3	x	3.8	x	-10

# The last 7 records of the part before come first, to join the parts:
# The line under a structure holds: BJeLR viability	Mtb hypoxia inh	Mtb hypoxia inh growth	Bead autofluor	RN4220 kill	PrP UTR inh	Sa ugtP lethal
Cc1cc(C)nc(SCc2ccc(C(=O)NN=C3CCCC(=O)C3)cc2)n1
    x	5	6	x	1.0	x	0
O=[N+]([O-])c1ccc(-c2ccc(C=Nc3c(-c4ccco4)nc4ccccn34)o2)cc1
    x	7	10	x	13	x	-9
CCOc1ccccc1NC(=O)c1ccc2c(c1)C(=O)N(CC(C)C)C2=O
    2	-4	6	4206	-5.5	-19	3
CCOC(=O)N1CCN(C2=C(NS(=O)(=O)c3ccc(C)cc3)C(=O)c3ccccc3C2=O)CC1
    2	-10	4	5134	1.7	-21	-17
O=C(CSCc1ccc(Cl)cc1)Nc1ccc(Br)cc1C(=O)O
    -9	16	7	3798	9.8	-17	6
COc1ccc(N2C(=O)CSC2=NC(=S)Nc2ccccc2)cc1
    x	-9	-4	x	-3.0	x	19
C=CCNC(=S)NN=Cc1ccc(OCc2ccccc2Cl)cc1
    x	0	-3	x	3.8	x	-10
Cc1ccc(NC(=O)COC(=O)c2cc(Cl)cc(Cl)c2)c(Br)c1
    12	-1	-2	1955	2.9	-5	2
Cc1ccccc1N(C(=O)c1snc(C(N)=O)c1N)C(C(=O)NCC1CCCO1)c1ccc(F)cc1 (centres undefined)
    -3	11	4	3579	7.2	-44	-2
CC1CN(c2ccc(NC(=O)c3ccco3)cc2C(=O)O)CC(C)O1 (centres undefined)
    -17	-4	6	3285	2.6	-7	2
CC(NC(=O)c1nc[nH]c1C(=O)N1CCc2ccccc2C1)c1ccccc1 (centres undefined)
    x	17&9	2&9	x	4.2&32	x	-2&1
O=C(Nc1ccc(F)cc1)NC1CCCc2ccccc21 (centres undefined)
    0	11	-5	6494	-1.2	-9	-2
CCc1cc(=O)oc2c(C)c(OCC(=O)NCCCn3ccnc3)ccc12
    10	14	5	4549	1.1	-42	1
O=C(NCc1ccccc1)c1ncn(Cc2ccccc2)c1C(=O)NCc1ccccc1
    x	9	4	3530	-2.1	-4	0
Cc1ccc2c(c1)CCCN2C(=O)c1ccoc1C
    3	4	1	21940*	3.4	3	5
CC1(C)C2CCC1(CS(=O)(=O)Nc1ccc(S(=O)(=O)N3CCCC3)cc1)C(=O)C2 (centres undefined)
    3	-6	3	3656	3.6	-3	-6
O=C(Nc1ccc(Cl)cc1)c1ccc(S(=O)(=O)N2CCOCC2)cc1
    2	1	2	6335	0.2	-3	2
Cc1ccc(CNC(=O)C2CCC(CNc3c(N4CCOCC4)c(=O)c3=O)CC2)cc1 (centres undefined)
    -3	-23	-8	5098	6.2	-14	-9
COc1ccccc1CNC(=O)CCS(=O)(=O)Cc1ccc(C)cc1
    10	3	3	5580	2.5	-5	3
CCOc1ccc(CCNC(=O)Cn2cccc2C(=O)c2ccccc2C)cc1OCC
    15	7	13	8511	2.6	-50	7
Cc1[nH]n(-c2cccc(Cl)c2)c(=O)c1C=Nn1c(C)nc2ccccc2c1=O
    x	-5	1	x	18	x	10
Cc1cc(C)cc(NC(=O)C2CCN(c3nccs3)CC2)c1
    -1	x	x	6742	3.8	-4	4
Cc1ccc(C)c(N2CCN(CC(=O)Nc3ccc4[nH]c(=O)[nH]c4c3)CC2)c1
    -3	9	14	5853	-7.9	-18	-7
CN(C)S(=O)(=O)c1cc(S(=O)(=O)N(C)C)c(Cl)cc1N
    0	8	-1	7311	1.7	-6	4
CC(=O)Nc1sc(C)c(C)c1C(=O)Nc1ccc(C)cc1
    0	8	9	7879	4.6	-7	-2
COc1ccc(CNC(=O)c2cc3cccc(OC)c3oc2=N)cc1
    -6	4	-3	5387	1.8	16	-2
CCC(=O)Nc1cccc(C(=O)OC)c1
    -7	0	3	3178	0.3	-22	-7
CCOc1ccc(S(=O)(=O)N2CCN(C(=O)c3oc4ccc(OC)cc4c3C)CC2)cc1
    x	5	-5	6505	0.6	-20	2
CCCCC(=O)Nc1ccc(NC(=O)c2cccnc2)cn1
    -2	9	8	3873	-1.9	-18	4
COc1cccc(CNC(=O)c2cccc(S(=O)(=O)N3CCN(Cc4ccccc4)CC3)c2)c1
    x	12	7	3742	2.1	-29	8
CCN(CCn1cccn1)C(=O)C1CCC(=O)N(CC2CCCCC2)C1 (centres undefined)
    8	21	6	5944	4.8	-13	5
CCOC1OC(C(=O)Nc2ccccc2)=CC(C)C1CCCO (centres undefined)
    x	3&12	1&10	x	7.7&9.4	x	2&-7
O=C(N/N=C\c1ccc(Br)o1)C1COc2ccccc2O1 (centres undefined)
    -5	x	x	2346	x	-1	x
NC(=O)c1sc2nc(N3CCCCC3)c3c(c2c1N)CCCC3
    -5	-6	-3	16416*	-1.5	-1	-3
COc1cc(CCC(=O)OCC(=O)Nc2c(C)cccc2C(C)C)cc(OC)c1OC
    -5	-3	7	2075	2.8	-12	0
O=C(COC(=O)Cc1c(F)cccc1Cl)NC(=O)Nc1ccccc1F
    x	14	10	6643	4.4	7	4
O=C(C1CCN(c2nnnn2-c2ccccc2)CC1)N1CCN(c2ccccc2)CC1
    x	5	11	10086	-1.7	-33	-6

# Next part.
smiles,BJeLR viability,Mtb hypoxia inh,Mtb hypoxia inh growth,Bead autofluor,RN4220 kill,PrP UTR inh,Sa ugtP lethal
Cc1ccc(-c2csc3ncnc(NCCC(=O)O)c23)cc1C,-3,0,5,4222,3.0,-16,-3
CCOc1cc(/C=C(\C#N)C(N)=O)ccc1OS(=O)(=O)c1ccccc1,2,6,3,2291,4.1,-19,1
Cc1noc(C)c1CSCC(=O)N(C)CC(=O)Nc1ccccc1Cl,-1,12,-32,x,3.1,-47,10
CN(CC(=O)NCc1cccnc1)S(=O)(=O)c1ccc2c(c1)c(=O)n(C)c(=O)n2C,0,6,8,4168,2.1,-22,12
Nc1nc(SCc2ccc([N+](=O)[O-])cc2)c2ncn(C3OC(CO)C(O)C3O)c2n1 (centres undefined),4,1,4,7173,6.3,21,6
Cc1ccc(S(=O)(=O)NC(CC(C)C)C(=O)NCCCn2nc(C)cc2C)cc1 (centres undefined),x,-8,-9,2935,-2.6,-9,-7
Cc1cccc(NC(=O)CN(C)S(=O)(=O)c2cccc3cccnc23)c1C,-10,2,-1,4329,2.3,-10,7
CC1CN(C(=O)NCc2ccccc2)c2cc(Cl)ccc2O1 (centres undefined),6,-4,-1,3540,2.9,-23,12
CCc1ccc(N2C(=O)Nc3ccc(Br)cc3C2(O)C(=O)NCCN(C)C)cc1 (centres undefined),4,-1,-4,3163,0.1,-9,-1
COC(=O)c1cc2ccsc2n1CC(=O)N1CCCc2ccccc21,-2,10,11,8094,7.3,-26,-2
COc1ccc(CNC(=O)CSc2nnc(C)c(=O)[nH]2)cc1,1,8,1,4663,2.0,-24,6
Cc1ccc(C(=O)NC(=S)Nc2ccc(-c3ccc(CO)o3)cc2)cc1,-3,12,10,4516,27,-36,10
CC1=C(C)CC(C(=O)Nc2ccc(C(=O)N3CCOCC3)cc2)C(C(=O)O)C1 (centres undefined),-9,17,-3,5509,4.2,-56,14
Cc1ccc(Cl)cc1N1CCN(C(=S)NCCc2ccccc2)CC1,-4,-1,-1,5047,-19,-21,-25
COc1ccccc1CNC(=O)c1ccc(OC(C)C)cc1,6,13,13,1985,0.2,-3,16
O=C(COc1cccnc1[N+](=O)[O-])NCCc1ccc(Cl)cc1Cl,-6,6,2,4444,-6.8,-32,-4

# Bioassay records: PubChem BioAssay, several laboratories
